Tg IFNy HTS: T. gondii growth inhibition with IFN-gamma, primary screen, cell-based | Toxoplasma gondii growth in IFN-gamma-treated host cells; stronger effect = lower value; reference of the scale not given here | activity change, negative = inhibition, %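 (about 20 µM by stock and volumes)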 | 69,000 compounds, 3.8% hits;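 active = below -70%; inconclusive = fit judged invalid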;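 note: host cells are HeLa cells infected with Toxoplasma gondii; parasite growth read as luciferase light; one replicate is shown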
* marks the source's active call; other numbers are inactive results; i = inactive; ? = inconclusive; & = joins results of further samples.

SMILES	Tg IFNy HTS
CC1(C)CNC(=O)c2nc(CC3=CCCCC3)[nH]c2C1	2
COCC(=O)N1CC2(C1)[C@H](c1ccc(-c3ccc(C)cc3)cc1)[C@H](CO)N2C(C)=O	-12
Cc1nc(-c2ccccc2)nc(SCCCOc2ccc(Cl)cc2)c1C#N	52
Cc1noc(C)c1NC(=O)N(C)C[C@@H]1OCCCC[C@H](C)Oc2ccc(NC(=O)Nc3ccc(C(F)(F)F)cc3)cc2C(=O)N([C@H](C)CO)C[C@@H]1C	?
COc1ccc(-c2cc(C(=O)NCc3ccccc3)c3ccccc3n2)cc1	38
CCOC(=O)c1sc2nccnc2c1N	70
COC(=O)c1c(NCCc2ccccc2)c2cc(F)ccc2[nH]c1=O	7
CCCS(=O)(=O)Cc1nnc(-c2cc(Cl)cc(Cl)c2)o1	-47
COCC(=O)Nc1cccc(-c2cc(F)ccc2C)c1	40
CCCNC(=O)N[C@H]1C=C[C@@H](CC(=O)N2CCN(C)CC2)O[C@@H]1CO	-12
C/C=C/c1ccc([C@@H]2[C@@H](CO)N(CC3CCCC3)C23CN(S(=O)(=O)CC)C3)cc1	99
COc1ccc(-c2nc(C)c(CCNC(=O)C(=O)Nc3cccc(C)c3)s2)cc1	-29
C[C@@H]1CN([C@H](C)CO)S(=O)(=O)c2ccc(-c3cccc(C#N)c3)cc2O[C@H]1CN(C)C(=O)c1ccccc1	?
COc1ccc(CN2CCC3(CC2)NC(=O)c2ccccc2O3)cc1	-28
O=C(c1cc(-c2csc(-c3ccccc3)n2)n2ccccc12)N1CCCC1	-50
CC(C)c1nccn1C(C)C(=O)N1CCN(C)C2(CCN(C)CC2)C1 (stereo not given)	25
CC(C)CN1CC2(CCN(C(=O)NCc3ccccc3)CC2)C2(CCN(C)C2=O)C1 (stereo not given)	87
COc1ccc(S(=O)(=O)NCCc2sc(-c3cccc(F)c3)nc2C)c(OC)c1	42
Cc1nc(N2CCOCC2)nc2c1CCN(C(=O)C1CC1)CC2	-59
Cn1cccc1C(=O)NC[C@@H]1CCC[C@]2(CCN(S(C)(=O)=O)C2)O1	4

Given with each value named: 2 of the compounds above
C[C@@H]1CN([C@H](C)CO)S(=O)(=O)c2ccc(-c3cccc(C#N)c3)cc2O[C@H]1CN(C)C(=O)c1ccccc1
- Tg IFNy HTS: ?
C/C=C/c1ccc([C@@H]2[C@@H](CO)N(CC3CCCC3)C23CN(S(=O)(=O)CC)C3)cc1
- Tg IFNy HTS: 99

(further entries)
SMILES	Tg IFNy HTS
Cc1ccc(NC(=O)N2CCC3(CC2)Nc2cc(F)ccc2-n2cccc23)cc1F	i
CN1CCN(C(=O)[C@@H]2[C@@H](CO)[C@@H]3Cn4c(ccc(-c5ccncc5)c4=O)[C@@H]3N2CC2CC2)CC1	-3
CC(Cn1cncn1)NCc1n[nH]c2c1CCC2 (stereo not given)	6
O=C(COCc1nc2ccccc2c(=O)[nH]1)NC1CC2(CCCCC2)Oc2ccccc21 (stereo not given)	-31
CN(C)Cc1cn(CC(=O)NC(C)(C)C)c2c(-c3cccs3)nccc12	78
C=CCN1CCc2cc(O)c(O)cc2C(c2ccccc2)C1 (stereo not given)	-9&-5
COc1ccc(S(=O)(=O)Nc2ccc3c(c2)C(=O)N([C@@H](C)CO)C[C@@H](C)[C@H](CN(C)C(=O)Nc2c(C)noc2C)OCCCC[C@@H](C)O3)cc1	80
CCOCC1CN(C(=O)c2ccccc2F)Cc2cnn(CC3CC3)c21 (stereo not given)	-8
O=C(CN1CCCC1=O)N1CCCC2(C=Cc3ccccc3O2)CC1 (stereo not given)	-14
CN(C)S(=O)(=O)c1ccc2c(c1)cc(C(=O)N1CCCC1)n2Cc1ccccc1	109
Cc1ccc(-c2coc(-c3ccc(NC(=O)Nc4ccc(Br)cc4)cc3)n2)cc1	3
COc1cccc(-c2nc3c(s2)CN(S(=O)(=O)c2ccccc2Cl)CC3)c1	-102*
CC(C)[C@@H]1CC[C@@H](C)C[C@@H]1P(=O)(c1ccccc1)c1ccccc1	6&-30
COc1ccccc1OC1CN(C(=O)c2occc2C)C1	7
CN1CCN(Cc2cnc3n2CCN(CC2CCOCC2)C3)CC1	-50
c1cnc(OC2COC3(CCN(c4ncccn4)C3)C2)nc1 (stereo not given)	5
CC(C)(C)c1cc2c(=O)[nH]nc(N)c2c(=O)[nH]1	23
Cc1ccccc1-c1ncc(CNCc2cccnc2-n2cncn2)s1	-27
Cc1ccc2c(CC(=O)NCCC3CN(C)CCO3)coc2c1 (stereo not given)	0
CCOc1ccc2nc3cc(N)ccc3c(N)c2c1	-11

Among those listed so far, three have a Cl atom:
SMILES	Tg IFNy HTS
Cc1nc(-c2ccccc2)nc(SCCCOc2ccc(Cl)cc2)c1C#N	52
CCCS(=O)(=O)Cc1nnc(-c2cc(Cl)cc(Cl)c2)o1	-47
COc1cccc(-c2nc3c(s2)CN(S(=O)(=O)c2ccccc2Cl)CC3)c1	-102*

Other entries
SMILES	Tg IFNy HTS
Cc1cc(C(=O)Nc2ccccc2C(=O)O)c(C)o1	-9
O=C(Cc1cccc(F)c1)N1CCC2(CC1)COCCN(c1ncccn1)C2	181
O=C(CNC1CCS(=O)(=O)C1)N1CCCC(c2cc3ccccc3cn2)C1 (stereo not given)	135
Cc1sc(NC(=O)CCn2cnc3ccccc3c2=O)nc1-c1cccc(Cl)c1	-10
COc1cccc(C#Cc2ccc3c(c2)O[C@H](CN(C)C(=O)CN2CCOCC2)[C@H](C)CN([C@@H](C)CO)S3(=O)=O)c1	?
CCOc1ccc(-c2nc(CN(c3ccc(C)cc3)S(=O)(=O)c3cccs3)c(C)o2)cc1OC	6
Cc1nc(=O)[nH]c(C)c1CCC(=O)N(C)Cc1cccc2ncccc12	2
CCCCCN1CC2CN(C(=O)c3cscn3)CC2C1 (stereo not given)	-7
Cc1nc(CNC(=O)C2CC3(CCNCC3)CN2)nc2c1CCCC2 (stereo not given)	6
O=C(O)CCNC(=O)c1ccc(N=Nc2ccc(O)c(C(=O)O)c2)cc1	13
COc1ccc(C(C)NC(=O)c2cn3c(n2)CCCC3)cc1OC (stereo not given)	110
CC1(C)CCc2cc(S(=O)(=O)N(Cc3ccccn3)Cc3ccccn3)ccc2O1	28
CCOC(=O)N1CCN(Cc2nc(C(c3ccccc3)c3ccccc3)no2)CC1	1
CC(c1cnn(-c2ccccc2)c1)n1ccnc1-c1cnc(N(C)C)nc1 (stereo not given)	4
CO[C@@H](CN(C)S(=O)(=O)c1ccc(F)cc1)[C@H](C)CN(Cc1ccccc1Cl)[C@@H](C)CO	26
CCN(CC)Cc1cnc2c(C(=O)NCc3ccoc3)cnn2c1	8
CCc1c(C)c(C#N)c2nc3ccccc3n2c1-n1nc(C)cc1C	-57
CCCN(C)C[C@@H]1OCCCC[C@H](C)Oc2ccc(NC(=O)CCCN(C)C)cc2C(=O)N([C@@H](C)CO)C[C@@H]1C	-27
CN(C)CC(=O)N1[C@H](C#N)[C@H](c2ccc(-c3cccc(C(=O)N(C)C)c3)cc2)[C@@H]1CO	-25
CNC[C@@H]1OCCCC[C@@H](C)Oc2ccc(N)cc2C(=O)N([C@H](C)CO)C[C@H]1C	86

Quoted at random: 6 entries already listed
SMILES	Tg IFNy HTS
COc1ccc(C(C)NC(=O)c2cn3c(n2)CCCC3)cc1OC (stereo not given)	110
CC1(C)CCc2cc(S(=O)(=O)N(Cc3ccccn3)Cc3ccccn3)ccc2O1	28
CCOC(=O)N1CCN(Cc2nc(C(c3ccccc3)c3ccccc3)no2)CC1	1
CC(c1cnn(-c2ccccc2)c1)n1ccnc1-c1cnc(N(C)C)nc1 (stereo not given)	4
CCN(CC)Cc1cnc2c(C(=O)NCc3ccoc3)cnn2c1	8
CN(C)CC(=O)N1[C@H](C#N)[C@H](c2ccc(-c3cccc(C(=O)N(C)C)c3)cc2)[C@@H]1CO	-25

Next part.
SMILES	Tg IFNy HTS
CCN(C)c1ncnc2c1CCN(C(=O)Cc1ccccn1)CC2	-5
Cc1ccc2c(c1)c(Cn1cc(-c3sccc3C)nn1)nn2C	-86*
CS(=O)(=O)N1CCC2(CC1)CN(c1cccnc1)C(=O)CO2	-3
C[C@H](NC(=O)C[C@H]1CC[C@@H]2[C@@H](COc3ccc(NC(=O)C4CCOCC4)cc3C(=O)N2C)O1)c1ccccc1	10
CC(c1cccc(-c2ccc3[nH]ncc3c2)c1)N1CCCC1 (stereo not given)	6
C[C@H](NC(=O)C[C@H]1C=C[C@H](NC(=O)c2cccnc2)[C@H](CO)O1)c1ccccc1	-18
Cc1ccc2c(n1)N(CCn1cccn1)CCN(CC1CCOC1)C2 (stereo not given)	4
Cc1occc1C(=O)N1CCC2(CC1)NC(=O)CC2c1cccnc1 (stereo not given)	-2
Fc1ccc(CN2CCCC3(COCCN(c4ncccn4)C3)C2)cc1 (stereo not given)	4
COc1ccc(-c2ccc(-n3cnnc3)nc2C)cn1	-88*
CCCN1CCN(CCCNC(=O)C2=C(C)C(=O)OC23CCN(S(C)(=O)=O)CC3)CC1	26
Cc1cccn2c(CNC(C)CCn3cccn3)cnc12 (stereo not given)	-8
Cc1noc(C)c1NC(=O)N(C)C[C@H]1OCc2cn(nn2)CCCC(=O)N([C@@H](C)CO)C[C@H]1C	-70
Nc1nc(-c2ccccc2)cc(C(F)(F)F)n1	-16
CCC12CC3CC(O)(C1)CC(C(=O)NCCC(=O)Nc1nccs1)(C3)C2 (stereo not given)	-14
Cc1noc(C)c1CNC(C)CCc1c[nH]c2ccccc12 (stereo not given)	-40
CNC(=O)Cc1ccc(-c2ccc(C(C)OC)cc2)cc1 (stereo not given)	142
C[C@@H]1CCCCO[C@@H](CN(C)C(=O)Nc2cccc3ccccc23)[C@@H](C)CN([C@H](C)CO)C(=O)c2cc(NC(=O)CCC(F)(F)F)ccc2O1	i
COc1cccc(COC2CN(Cc3ccccn3)C(=O)CN(C(=O)c3c(F)cccc3Cl)C2)c1 (stereo not given)	-5
Cc1noc(C)c1S(=O)(=O)Nc1ccc2c(c1)C(=O)N([C@@H](C)CO)C[C@H](C)[C@H](CN(C)Cc1ccc(C(=O)O)cc1)OCCCC[C@H](C)O2	41
C=CCN1CCN(C(=O)C2COc3ccccc3C2)CC1 (stereo not given)	-5
COc1cccc(S(=O)(=O)N2C[C@@H](O)COC[C@H]3O[C@H](CC(=O)N4CCN(c5ccccc5)CC4)CC[C@@H]32)c1	-15
CCS(=O)(=O)N1CC2(C1)[C@@H](c1ccccc1)[C@@H](CO)N2Cc1ccccn1	2
COc1ccc(S(=O)(=O)N2CCN(C(=O)N(C)C)C2C(C)C)cc1 (stereo not given)	-3
CCN1CCC2(CN(Cc3cccnc3)CC23CCN(Cc2ccc(C)o2)CC3)C1=O (stereo not given)	1
CN[C@H](CNC(=O)N1CCC[C@@H]([C@@H](OCCNC(=O)OC)c2cccc(Cl)c2)C1)C[C@H]1CCCOC1	9
COc1coc(CN2CCCC3(CC2)CN(C)C(=O)O3)cc1=O (stereo not given)	40
C/C=C/c1ccccc1[C@@H]1[C@@H](C#N)N(C(=O)c2cccnc2)[C@@H]1CO	4
CO[C@H]1CN(C(=O)c2cccc(-n3nnnc3C)c2)CC[C@H]1N	-4
CNC(=O)COC1COC2(CCN(CC3CCC3)CC2)C1 (stereo not given)	3
CC(C)=CC(=O)N1CCC2(CC1)CNC(=O)C2	-1
COc1ccc(CN(C)C[C@@H]2OCCCC[C@H](C)Oc3ccc(NC(=O)C4CCCCC4)cc3C(=O)N([C@@H](C)CO)C[C@H]2C)cc1	-30
COC(=O)c1ccc(C(=O)OC)c(NC(=O)C(C)C)c1	6
C[C@@H]1CN([C@@H](C)CO)C(=O)c2cc(NC(=O)Cn3cnnn3)ccc2O[C@H]1CN(C)C(=O)Nc1ccc2c(c1)OCO2	15
COc1ccc(CC(=O)N2CCC(c3nc(C(=O)N4CCCC4)c(C)o3)CC2)cc1Cl	-57
COc1ccc(NC(=O)N(C)C[C@H]2Oc3c(NS(=O)(=O)c4c(C)noc4C)cccc3C(=O)N([C@H](C)CO)C[C@H]2C)cc1	-46
O=C(O)c1ccccc1NS(=O)(=O)c1cccc2nsnc12	4
COc1cccc(CN2C(=O)N(C(C)C)C(N(O)C(=O)NC(C)C)C2(C)C)c1OC (stereo not given)	-13
[Cl][Ru]([Cl])([Cl])[Cl].c1ccc2[nH]ncc2c1.c1ccc2[nH]ncc2c1	16
O=C(NCc1cccc(Cl)c1)c1c(O)c2cccnc2n(-c2ccc(F)cc2)c1=O	128
Cc1nc(NC(=O)CSc2nnc(C(C)C)n2C)sc1C	6
C=CCN(Cc1ccccc1Cl)C(=O)CCC1CCOC1=O (stereo not given)	-4
C[C@]12CCC3c4ccc(OC(=O)c5ccccc5)cc4CCC3C1CCC2O (stereo not given in full)	-63
CCN(CC)CCN(C)Cc1nc(Cc2ccccc2F)no1	-41
NC(=O)c1cnc2n1CCN(C(=O)CSc1ccc(Cl)cc1)C2	4
CCCCCc1ccc(C(=O)NC(=S)Nc2ccsc2C(=O)OC)cc1	-61
CCOC(=O)C1C(=O)NC(N2CCN(Cc3ccccc3)CC2)=NC1c1ccco1 (stereo not given)	25
CNC(=O)c1ccccc1Sc1ccc(OC)cc1C(=O)NC	-24
Cc1ccc(S(=O)(=O)N[C@H]2C=C[C@@H](CC(=O)NCc3ccc(Cl)c(Cl)c3)O[C@H]2CO)cc1	-57
CC(=O)N1C[C@H]2[C@@H](c3ccccc31)[C@@H](CO)N2Cc1ccc(Cl)cc1	-6

Look-ups from the list.
For Tg IFNy HTS, Cc1nc(NC(=O)CSc2nnc(C(C)C)n2C)sc1C shows 6
For Tg IFNy HTS, Cc1ccc(S(=O)(=O)N[C@H]2C=C[C@@H](CC(=O)NCc3ccc(Cl)c(Cl)c3)O[C@H]2CO)cc1 shows -57
For Tg IFNy HTS, CNC(=O)c1ccccc1Sc1ccc(OC)cc1C(=O)NC shows -24

Later entries
SMILES	Tg IFNy HTS
COc1ccc(NC(=O)C(=O)NCCc2sc(-c3cccc(F)c3)nc2C)cc1	19
CC(=O)N[C@H]1C[C@@H](c2cc(=O)n3c4c(cccc24)CCC3)O[C@@H](C(C)C)C1	-5
CCC(C(=O)N1CCCC(O)(c2ccc(F)cc2)CC1)n1cnc2ccccc21 (stereo not given)	-11
CSc1nsc(SC)c1C(=O)NC(C)C	47
CC(=O)Nc1ccc(CN2CCN(C3CCCCC3)C(CCO)C2)cc1 (stereo not given)	11

Source: PubChem

Only part of the results is shown, so the mix of outcomes need not match the whole.
